KCNQ2 pot: enhances the rat KCNQ2 potassium channel. O88943. CHO-K1 KCNQ2, FluxOR thallium flux fluorescence; active compounds read high. B-score at 10 µM. 310,000 tested, 0.54% active;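 active means fluorescence ratio B-score at least 3 SD of library B-scores, with initial fluorescence B-score within 3 SD, cut at about 5.3 in these data; same plate scores as AID 2156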;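 further: B-score of peak minus minimum over baseline fluorescence ratio after K+ and Tl+ stimulus; positive B-score means potentiation of KCNQ2 with more thallium influx and brighter signal; only the inactives scoring about 0 or higher are listed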
Target sequence (O88943 whole entry, looked up): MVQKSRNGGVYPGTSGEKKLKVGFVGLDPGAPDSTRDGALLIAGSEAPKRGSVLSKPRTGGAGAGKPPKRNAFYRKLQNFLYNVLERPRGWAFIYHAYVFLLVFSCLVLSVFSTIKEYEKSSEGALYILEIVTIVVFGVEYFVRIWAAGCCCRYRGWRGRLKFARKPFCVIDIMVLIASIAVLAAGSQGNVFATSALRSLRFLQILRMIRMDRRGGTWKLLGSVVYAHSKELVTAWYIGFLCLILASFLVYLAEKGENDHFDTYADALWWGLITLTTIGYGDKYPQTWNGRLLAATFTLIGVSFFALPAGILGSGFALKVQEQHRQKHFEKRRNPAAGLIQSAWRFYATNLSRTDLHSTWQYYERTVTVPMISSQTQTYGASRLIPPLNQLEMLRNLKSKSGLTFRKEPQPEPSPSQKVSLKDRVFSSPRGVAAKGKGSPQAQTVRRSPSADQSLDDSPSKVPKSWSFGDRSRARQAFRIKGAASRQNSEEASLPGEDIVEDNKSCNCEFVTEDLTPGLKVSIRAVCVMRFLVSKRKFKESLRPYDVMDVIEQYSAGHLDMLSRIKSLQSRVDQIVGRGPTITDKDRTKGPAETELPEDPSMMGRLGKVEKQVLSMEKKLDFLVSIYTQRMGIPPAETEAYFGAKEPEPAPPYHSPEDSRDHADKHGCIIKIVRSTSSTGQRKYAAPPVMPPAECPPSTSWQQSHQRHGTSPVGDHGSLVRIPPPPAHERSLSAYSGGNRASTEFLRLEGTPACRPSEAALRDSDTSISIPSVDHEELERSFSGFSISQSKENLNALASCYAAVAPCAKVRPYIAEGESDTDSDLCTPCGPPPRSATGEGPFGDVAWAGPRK
KCNQ2 pot baseline: further read-out of KCNQ2 pot, marked with its call; B-score; compound at 10 µM; measured here: initial fluorescence intensity artifact check;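 brightness before thallium and not channel activity; 0 = typical well and far values either way flag optical interference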
The depositor's hits bear a star.

For Cc1ccc(CNC(=O)CSc2nc3[nH]ncc3c(=O)[nH]2)cc1 the results were KCNQ2 pot 0.52 and KCNQ2 pot baseline -1.2.
COc1ccc(/C=[N+](\[O-])C2N(c3ccccc3)C(=S)SC2(C)C)cc1OC (stereo not given) was read as KCNQ2 pot 0.34 and KCNQ2 pot baseline -1.
`Cc1ccc(N(CC(O)CN2CCCC2)S(=O)(=O)c2ccccc2)cc1` (stereo not given) gave KCNQ2 pot 0.38 and KCNQ2 pot baseline 0.98.
COc1ccc(-c2nn(-c3ccccc3)cc2/C=N/O)cc1 was read as KCNQ2 pot 0.79 and KCNQ2 pot baseline -0.91.
`Cc1cc(NC(=O)C(C)SCC(=O)N(C)CC(=O)Nc2ccc(F)cc2)no1` (stereo not given) gave KCNQ2 pot 2 and KCNQ2 pot baseline -1.1.
For COc1cccc(-n2cnnn2)c1 the results were KCNQ2 pot 1 and KCNQ2 pot baseline -1.6.
`CC(=O)Nc1cc[n+](C(C)C(=O)c2ccc(Cl)cc2)cc1` (stereo not given) gave KCNQ2 pot 0.64 and KCNQ2 pot baseline -1.9.
`COc1ccc(OCC(=O)Nc2cc(C)c(Cl)cc2OC)c([N+](=O)[O-])c1` gave KCNQ2 pot 1.1 and KCNQ2 pot baseline 2.9.
For COc1c(C)cccc1C(=O)Nc1ccc(N2CCN(S(C)(=O)=O)CC2)cc1 the results were KCNQ2 pot 0.26 and KCNQ2 pot baseline -0.34.
`O=C(CN1c2ccccc2Sc2ccccc21)N/N=C/c1ccccc1` gave KCNQ2 pot 1 and KCNQ2 pot baseline 0.97.
For COCCNC(=O)C1CC(c2ccc(F)cc2)=NO1 (stereo not given) the results were KCNQ2 pot 1.2 and KCNQ2 pot baseline -1.1.
For Cc1ccc(C)c(NC(=O)C2CC(=O)N(C(C)C)C2)c1 (stereo not given) the results were KCNQ2 pot 0.64 and KCNQ2 pot baseline -0.29.
Screening O=C(NCCCN1CCCC1=O)c1cccc(C(F)(F)F)c1 returned KCNQ2 pot 0.36 and KCNQ2 pot baseline 0.61.
CCc1c(C)nc(SCC(=O)Nc2c(C)n(C)n(-c3ccccc3)c2=O)[nH]c1=O was read as KCNQ2 pot 0.36 and KCNQ2 pot baseline -0.92.
COc1ccc(S(=O)(=O)N2CCCCCC2)cc1NC(=O)CN1C(=O)NC(C)(c2ccccc2)C1=O (stereo not given) was read as KCNQ2 pot 2.2 and KCNQ2 pot baseline -0.02.
For CC(C)n1cc(/C=N/Nc2ccc(C(=O)O)cc2)c2ccccc21 the results were KCNQ2 pot 1.3 and KCNQ2 pot baseline -2.5.
`Cc1ccc(NC(=O)CSc2nnc3ccc(-c4ccncc4)nn23)cc1` gave KCNQ2 pot 0.81 and KCNQ2 pot baseline 0.35.
For COc1ccc(-c2nnc(NC(=O)C3CC3)o2)cc1 the results were KCNQ2 pot 2 and KCNQ2 pot baseline 0.02.
Cc1nc2nc[nH]n2c(=O)c1NS(=O)(=O)c1ccc(C(C)(C)C)cc1 was read as KCNQ2 pot 0.27 and KCNQ2 pot baseline -0.07.
`COc1cccc(NC(=O)COC(=O)C2C3CC4OC(=O)C2C4C3)c1` (stereo not given) gave KCNQ2 pot 2 and KCNQ2 pot baseline -0.96.
For Cc1ccc(CN2CCN(C(=O)c3ccco3)CC2)cc1 the results were KCNQ2 pot 1.1 and KCNQ2 pot baseline -1.1.
Screening CC(Sc1nc2c(c(=O)n(C)c(=O)n2C)n1Cc1cc2c(cc1Cl)OCO2)C(=O)O (stereo not given) returned KCNQ2 pot 0.01 and KCNQ2 pot baseline 0.22.
O=C(NCCN1CCN(C(=O)c2ccc(Br)cc2)CC1)c1ccc(Br)cc1 was read as KCNQ2 pot 0.27 and KCNQ2 pot baseline 0.04.
For Cc1sc(NC(=O)c2ccccc2F)c(CN2CCCCC2C)c1C (stereo not given) the results were KCNQ2 pot 0.23 and KCNQ2 pot baseline 0.
For CN(C)C=Nc1ncc2c3ccccc3n(Cc3ccccc3)c2c1C#N the results were KCNQ2 pot 0.72 and KCNQ2 pot baseline -1.2.
CCOc1ccc2[nH]c3c(NCCO)ncnc3c2c1 was read as KCNQ2 pot 0.98 and KCNQ2 pot baseline -1.3.
For CCn1nc(C)c(C2C(C#N)=C(N)Oc3n[nH]c(C)c32)c1C (stereo not given) the results were KCNQ2 pot 0.43 and KCNQ2 pot baseline 1.4.
For CN(C)c1ccc(NC(=O)CSc2nnc(-c3cccs3)n2Cc2ccco2)cc1 the results were KCNQ2 pot 0.21 and KCNQ2 pot baseline 0.03.
`CCOC(=O)CSc1nc(C(C)(C)C)cc(C(F)(F)F)c1C#N` gave KCNQ2 pot 0.2 and KCNQ2 pot baseline 2.4.
Screening C/C(=N\N1CCN(c2ccccc2)CC1)c1ccncc1 returned KCNQ2 pot 0.67 and KCNQ2 pot baseline 0.
`CC1(C)Cc2c(sc3nc(-c4cccs4)n(N)c(=O)c23)CO1` gave KCNQ2 pot 0.18 and KCNQ2 pot baseline 0.21.
Screening Cn1c2ccccc2c(=O)n2c(=O)c3ccccc3cc12 returned KCNQ2 pot 0.69 and KCNQ2 pot baseline 0.7.
`COc1ccc(Br)cc1/C=C/C(=O)NCC(=O)O` gave KCNQ2 pot 0.1 and KCNQ2 pot baseline 0.34.
CCOC(=O)c1c(NC(=S)Nc2ccc(C)cc2)sc2c1CCC2 was read as KCNQ2 pot 0.01 and KCNQ2 pot baseline 0.57.
Screening CC(C)=CCN1CCNC(=O)C1CC(=O)NCc1nc(C)c(C)s1 (stereo not given) returned KCNQ2 pot 0.17 and KCNQ2 pot baseline -0.27.
COc1ccc(Nc2c3ccccc3nc3ccccc23)cc1 was read as KCNQ2 pot 2.4 and KCNQ2 pot baseline 1.2.
`CCCN1C(=O)c2cc(C(=O)NC3CCCCCC3)ccc2C1O` (stereo not given) gave KCNQ2 pot 0.07 and KCNQ2 pot baseline -1.9.
Screening CCOc1ccc(-c2nc3c(s2)CCc2onc(-c4ccc(OC)cc4)c2-3)cc1 returned KCNQ2 pot 0.22 and KCNQ2 pot baseline 0.24.
Screening CCCCOC(=O)Nc1nnc(CC)s1 returned KCNQ2 pot 0.79 and KCNQ2 pot baseline 0.07.
For COc1ccc2cc(CCNC(=O)C(C)(C)C)c(=O)[nH]c2c1 the results were KCNQ2 pot 0.33 and KCNQ2 pot baseline -1.4.
`CN(C)c1cccc(N(C)C)c1CNC(=O)C(C)(C)C` gave KCNQ2 pot 0.22 and KCNQ2 pot baseline 0.28.
`CCCCc1ccc(NC(=S)N2CCCC2)cc1` gave KCNQ2 pot 0.67 and KCNQ2 pot baseline -0.36.
Screening CCCOc1ccccc1C(=O)N(Cc1ccc(C)o1)C1CCS(=O)(=O)C1 (stereo not given) returned KCNQ2 pot 1.2 and KCNQ2 pot baseline 2.1.
Screening NC(=O)c1ccccc1NC(=O)CCCCCn1nnc2ccccc2c1=O returned KCNQ2 pot 0.05 and KCNQ2 pot baseline 0.13.
CC(C)C(=O)Nc1ccc(C(=O)NNC(=O)CCCOc2ccc(Cl)cc2Cl)cc1 was read as KCNQ2 pot 0.51 and KCNQ2 pot baseline -1.7.
Screening CCCCC1=CC2=CC(=O)C(C)(OC(=O)CC)C(=O)C2=CN1C(CO)CO (stereo not given) returned KCNQ2 pot 0.91 and KCNQ2 pot baseline 0.23.
For Cc1cc(=O)oc2cc(OCC(=O)NC3CC(C)(C)NC(C)(C)C3)c(Cl)cc12 the results were KCNQ2 pot 0.54 and KCNQ2 pot baseline 1.2.
`COc1ccccc1NC(=O)CSc1ncnc2c1oc1ccccc12` gave KCNQ2 pot 0.57 and KCNQ2 pot baseline -0.68.
O=C(OCC(=O)N(C1CCCCC1)C1CCCCC1)c1cnccn1 was read as KCNQ2 pot 0.76 and KCNQ2 pot baseline -0.89.
Screening CCOc1ccc(C(=O)NC(C(=O)NCc2ccccn2)C(C)C)cc1 (stereo not given) returned KCNQ2 pot 0.76 and KCNQ2 pot baseline -0.67.
Screening CN(C(=O)COC(=O)/C=C/c1ccc(S(=O)(=O)N2CCc3ccccc32)cc1)C1CCS(=O)(=O)C1 (stereo not given) returned KCNQ2 pot 2.1 and KCNQ2 pot baseline -0.02.
`CCOc1cc2[nH]c(=S)n(Cc3ccc(C(=O)NCCOC)cc3)c(=O)c2cc1OCC` gave KCNQ2 pot 0.5 and KCNQ2 pot baseline 0.5.
`CN(c1ccccc1)S(=O)(=O)c1cc(C(=O)OCC(N)=O)ccc1Cl` gave KCNQ2 pot 2.7 and KCNQ2 pot baseline -1.6.
`O=C(Nc1ccccc1)Nc1ccc(Cl)c([N+](=O)[O-])c1` gave KCNQ2 pot 0.14 and KCNQ2 pot baseline 1.8.
`Cc1cccc(C)c1OCc1cc(C(=O)N(Cc2nccn2C)C(C)C)no1` gave KCNQ2 pot 0.92 and KCNQ2 pot baseline -0.19.
For O=C(COC(=O)/C=C/c1ccc(S(=O)(=O)N2CCCCCC2)cc1)NCc1ccccc1Cl the results were KCNQ2 pot 0.14 and KCNQ2 pot baseline -0.1.
CC(C)=C1SC(N2CCN(c3cccc(C)c3)CC2)=NC1=O was read as KCNQ2 pot 2.2 and KCNQ2 pot baseline -1.6.
Cc1cccc(NC(=O)CCN2CC(C)CC(C)C2)c1 (stereo not given) was read as KCNQ2 pot 0.04 and KCNQ2 pot baseline 0.1.
N#Cc1nc(Cc2cccc3ccccc23)oc1NCCCn1ccnc1 was read as KCNQ2 pot 0.19 and KCNQ2 pot baseline 3.3.
O=C(O)c1ccc(N/N=C/c2cn(Cc3ccccc3F)c3ccccc23)cc1 was read as KCNQ2 pot 0.79 and KCNQ2 pot baseline -1.5.
For O=C(Cc1coc2cc3c(cc12)CCC3)OCC(=O)N1CCCC1=O the results were KCNQ2 pot 1.5 and KCNQ2 pot baseline -1.2.
`CS(=O)(=O)c1ccc(C(=O)N2CC(=O)Nc3ccccc32)cc1` gave KCNQ2 pot 0.14 and KCNQ2 pot baseline -2.9.
`Cc1ccc(NC(=O)c2ccc(OCC3CCCO3)cc2)c(C)c1` (stereo not given) gave KCNQ2 pot 0.22 and KCNQ2 pot baseline -0.02.
For COC(=O)[C@@H]1Cc2c([nH]c3ccccc23)C2CCC(=O)N21 (stereo not given in full) the results were KCNQ2 pot 1.3 and KCNQ2 pot baseline 0.17.
For O=c1oc(Nc2cccc(F)c2)nc2ccccc12 the results were KCNQ2 pot 0.13 and KCNQ2 pot baseline -0.78.
O=C(NC1CCCC1)c1cc2ccccc2o1 was read as KCNQ2 pot 1.2 and KCNQ2 pot baseline -0.18.
`O=C(COC(=O)c1cc(S(=O)(=O)N2CCOCC2)ccc1O)NCC1CCCO1` (stereo not given) gave KCNQ2 pot 0.91 and KCNQ2 pot baseline -1.8.
Screening CC(=O)Nc1ccc(S(=O)(=O)NCCC(=O)OCc2csc(CC(=O)Nc3ccccc3C)n2)cc1 returned KCNQ2 pot 1.5 and KCNQ2 pot baseline -0.01.
`Cc1ccc(S(=O)(=O)c2nc(Nc3ccccc3N3CCOCC3)sc2Cl)cc1` gave KCNQ2 pot 2.2 and KCNQ2 pot baseline 0.01.
For Cc1onc2c(=O)n(-c3ccccc3)nc(-c3ccccc3)c12 the results were KCNQ2 pot 0.26 and KCNQ2 pot baseline -1.1.
Screening CCOC(=O)N1CCC(NC(=O)c2cc(C(=O)NCc3ccc(F)cc3)ccc2CO)CC1 returned KCNQ2 pot 0.35 and KCNQ2 pot baseline -0.56.
O=C(Cn1ccc2cc(S(=O)(=O)N3CCCC3)ccc21)NCc1ccccc1 was read as KCNQ2 pot 0.69 and KCNQ2 pot baseline -1.8.
`Cc1ccc(S(C)=O)cc1-n1c(=O)n(Cc2ccccc2)c(=O)c2[nH]cnc21` (stereo not given) gave KCNQ2 pot 0.59 and KCNQ2 pot baseline 1.9.
Screening CCOC(=O)c1c(NC(=O)C2=C(C)NC(=S)NC2c2ccc(F)cc2F)sc(C)c1C (stereo not given) returned KCNQ2 pot 4.2 and KCNQ2 pot baseline -1.9.
For CC(CCc1ccccc1)NC(=O)C1CCC1 (stereo not given) the results were KCNQ2 pot 0.74 and KCNQ2 pot baseline 0.19.
For CCOc1cc(C(=O)Nc2ccc(F)cc2)cc(Br)c1OC the results were KCNQ2 pot 0.85 and KCNQ2 pot baseline -1.8.

By substructure: the entries above containing a Cl atom
`CC(=O)Nc1cc[n+](C(C)C(=O)c2ccc(Cl)cc2)cc1` (stereo not given) gave KCNQ2 pot 0.64 and KCNQ2 pot baseline -1.9.
`COc1ccc(OCC(=O)Nc2cc(C)c(Cl)cc2OC)c([N+](=O)[O-])c1` gave KCNQ2 pot 1.1 and KCNQ2 pot baseline 2.9.
Screening CC(Sc1nc2c(c(=O)n(C)c(=O)n2C)n1Cc1cc2c(cc1Cl)OCO2)C(=O)O (stereo not given) returned KCNQ2 pot 0.01 and KCNQ2 pot baseline 0.22.
CC(C)C(=O)Nc1ccc(C(=O)NNC(=O)CCCOc2ccc(Cl)cc2Cl)cc1 was read as KCNQ2 pot 0.51 and KCNQ2 pot baseline -1.7.
For Cc1cc(=O)oc2cc(OCC(=O)NC3CC(C)(C)NC(C)(C)C3)c(Cl)cc12 the results were KCNQ2 pot 0.54 and KCNQ2 pot baseline 1.2.
`CN(c1ccccc1)S(=O)(=O)c1cc(C(=O)OCC(N)=O)ccc1Cl` gave KCNQ2 pot 2.7 and KCNQ2 pot baseline -1.6.
`O=C(Nc1ccccc1)Nc1ccc(Cl)c([N+](=O)[O-])c1` gave KCNQ2 pot 0.14 and KCNQ2 pot baseline 1.8.
For O=C(COC(=O)/C=C/c1ccc(S(=O)(=O)N2CCCCCC2)cc1)NCc1ccccc1Cl the results were KCNQ2 pot 0.14 and KCNQ2 pot baseline -0.1.
`Cc1ccc(S(=O)(=O)c2nc(Nc3ccccc3N3CCOCC3)sc2Cl)cc1` gave KCNQ2 pot 2.2 and KCNQ2 pot baseline 0.01.

Screening data as filed in PubChem.

This is a subset. The share of hits here may be higher or lower than overall.
